Screens as filed in PubChem BioAssay.
ALR inh: human ALR oxidase inhibition via reduced H2O2; purified ALR, DTT oxidation, H2O2 HRP-luminol luminescence; actives 3.8% (n = 290,000); P55789; inhibition, % (no concentration beside the values); AID 485317;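 active means mean and each replicate at 75% or more; inconclusive means only one of the two met; inactive means neither met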;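 further: stock transfer was 7.5 nL into about 7.5 µL; 0% = neutral wells and 100% = wells with inactivated enzyme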
Target sequence (P55789 whole entry, looked up): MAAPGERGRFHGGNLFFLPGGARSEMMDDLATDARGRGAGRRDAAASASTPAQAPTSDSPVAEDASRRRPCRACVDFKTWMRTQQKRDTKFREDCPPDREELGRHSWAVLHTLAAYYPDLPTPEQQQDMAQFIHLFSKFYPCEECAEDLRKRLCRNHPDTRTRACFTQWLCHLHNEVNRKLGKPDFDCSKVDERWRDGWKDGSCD
T cruzi inh: blocks replication of Trypanosoma cruzi; AID 1885; T. cruzi beta-gal in NIH3T3, luminescence, 90 h; inhibition, % (concentration not given with the values); actives 1.4% (n = 300,000);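 active means mean inhibition across valid replicates above about 55%, limit read from the data; inconclusive means mean below that limit but half or more replicates reach it; inactive means mean below it, under half of replicates reach it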;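 further: signal also drops with host cell toxicity which is not excluded here; 0% = plate median of DMSO wells and 100% = zero luminescence signal; higher percent means less beta-gal luminescence so fewer parasites; stock transfer was 50 nL into about 50 µL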
Ecoli rRNA inh: inhibitors of bacterial rRNA selective over humanized ribosomes. GFP signal change (wild-type ribosome), % (concentration not given with the values). AID 720706. E. coli WT GFP vs humanized-ribosome RFP mutants, fluorescence, 24 h; hits give low values; DMSO median 0, no signal -100. actives 1.6% (n = 350,000);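 active means significant combined selectivity score with lowered wild-type GFP, culture density cut under 30%, mutant RFP and density less affected; inactive means any of these conditions unmet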; further: one replicate is shown; some compounds called inactive have numbers as strong as hits
Beta cell apopt: beta cell apoptosis inhibition. actives 0.8% (n = 300,000). protection from apoptosis, % (no concentration beside the values). AID 435005. INS-1E cytokine-induced death, ATP luminescence, 48 h; percent of positive-control rescue, neutral wells zero;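 active means all replicates at 75% or more, or half of them and the mean; inconclusive means half reach 75% but not the mean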;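 further: 0% = cytokine-treated negative control wells and 100% = positive control rescue; higher means more ATP so stronger rescue from cytokine killing; wells of about 40 µL received 100 nL stock; the first replicate is given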
A1 inh: inhibitors of the anti-apoptotic protein A1, read as caspase activation | MEF A1-2A-BIM cells, Caspase-Glo 3/7 luminescence, 3 h; percent of clofoctol response, vehicle zero | caspase activation, % (concentration not given with the values) | actives 0.066% (n = 330,000);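 active means over half of replicate activation scores above 10%, or exactly half above 10 with the replicate mean above 10; inconclusive means replicate mean below 10 yet half the replicates above 10; inactive means over half of replicates below 10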;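 further: wells of about 30 µL received 50 nL stock; many hits fall short of the cut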
LANA-H2B inh: blocks KSHV LANA binding to histone H2A/H2B; Q9QR71; cell-free LANA-H2A/H2B peptide, fluorescence polarization; inhibition, % (no concentration beside the values); actives 0.6% (n = 320,000); in the data active means inhibition mostly above about 10%, no sharp cut-off; inactive means mostly below about 6.7%;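 further: stock transfer was 7.5 nL into about 10 µL; 0% = median of vehicle wells and 100% = median of positive control wells; one replicate is shown; the record names a cut of 25% in any replicate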
Calb FLC: C. albicans growth modulation with fluconazole | growth inhibition, % (test concentration not listed) | C. albicans CaCi-2 (fluconazole-resistant clinical isolate) + fluconazole, Alamar Blue growth, 48 h | actives 0.57% (n = 300,000);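 active means most replicates above 75%; inconclusive means exactly half above 75%; inactive means most below 75%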;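 further: all wells also contain fluconazole at 8 µg/ml as a sub-toxic cotreatment; 0% = median of DMSO wells and 100% = median of geldanamycin control wells; wells of about 8 µL received 7.5 nL stock; the first replicate is given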
B2AR ag: agonists of human beta-2 adrenergic receptor inducing internalization; response, % (concentration not given with the values); P07550; actives 0.43% (n = 340,000); AID 504454; Am2.2-beta2AR cells, FAP receptor internalization, flow cytometry; reference of the scale not given here;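 active means response above a set limit, near 3 SD of response in nonfluorescent compounds, cut at about 42% in these data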;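 further: stock transfer was 100 nL into about 11 µL; a reference agonist was the positive control; negative values mostly stem from fluorescent compounds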
Target sequence (P07550 whole entry, looked up): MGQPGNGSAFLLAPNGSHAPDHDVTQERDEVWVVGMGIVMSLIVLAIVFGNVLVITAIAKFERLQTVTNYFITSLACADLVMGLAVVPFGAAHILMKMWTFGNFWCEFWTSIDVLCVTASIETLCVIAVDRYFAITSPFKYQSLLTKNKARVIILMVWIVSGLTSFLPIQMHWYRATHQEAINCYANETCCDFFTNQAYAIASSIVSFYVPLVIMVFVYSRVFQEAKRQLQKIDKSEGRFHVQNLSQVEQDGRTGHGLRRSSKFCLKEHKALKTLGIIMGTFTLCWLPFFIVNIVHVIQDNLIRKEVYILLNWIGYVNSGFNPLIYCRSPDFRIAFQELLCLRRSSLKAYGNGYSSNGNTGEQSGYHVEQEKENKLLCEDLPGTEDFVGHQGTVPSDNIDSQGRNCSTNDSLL
Ecoli rRNA inh OD600: also measured in Ecoli rRNA inh; calls as there; OD600 change, %; measured here: OD600 growth;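 optical density of the mix in the first replicate; 0 = DMSO median and -100 = no signal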
Ecoli rRNA inh RFP: further read-out of Ecoli rRNA inh, marked with its call; RFP signal change, %; measured here: RFP humanized mutant strains;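 first replicate; 0 = DMSO median and -100 = no signal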
The depositor's hits bear a star; u = inconclusive; x = not tested or not shown.

SMILES | ALR inh | T cruzi inh | Ecoli rRNA inh | Ecoli rRNA inh OD600 | Ecoli rRNA inh RFP | Beta cell apopt | A1 inh | LANA-H2B inh | Calb FLC | B2AR ag
CC(=O)C1=C(O)CCC1=N | -23 | -4 | x | x | x | 6 | 0.4 | -3.4 | -8 | -2
O=C(O)c1ccc(N2C(=O)CC(N3CCC(c4nc5ccccc5[nH]4)CC3)C2=O)cc1 (stereo not drawn) | -1 | -3 | 20 | 19 | -3.7 | -6 | 0.9 | 3.7 | 16 | -7
CC(C(=O)NC1CCCCC1)N(Cc1ccccc1)C(=O)c1snc(C(N)=O)c1N (stereo not drawn) | 50 | 8 | 0 | -6 | 0.9 | -4 | 0.6 | 1.9 | -3 | 0
O=C(O)CCC(=O)N1CCN(c2ccccn2)CC1 | -1 | 0 | x | x | x | -2 | 0.4 | 0.6 | 2 | -9
CC(C)c1nnc(NC(=O)CCC(=O)NCc2ccc3c(c2)OCO3)s1 | -4 | -20 | 3 | 10 | 0.7 | 2 | -0.6 | -5.9 | -3 | 6
CS(=O)(=O)N(CC(=O)N1CCc2ccccc2C1)c1ccc(Cl)cc1F | -3 | 6 | 1 | 8 | -1.5 | 0 | 0.1 | 0.4 | 3 | -2
COc1ccc(N(C(=O)C(C)C)S(=O)(=O)c2cccc3cccnc23)cc1 | 0 | 10 | -3 | -5 | 7.2 | 3 | 0.6 | -2.5 | 11 | 7
Cc1cc(C)cc(NC(=O)CN2CCc3ccccc3C2)c1 | 1 | -9 | x | x | x | -4 | -0.2 | -3.6 | -6 | 9
COc1ccccc1NC(=O)Cn1nnc(-c2ccccc2NC(=O)c2ccco2)n1 | x | -42 | x | x | x | 2 | 0.8 | -1.3 | 0 | 2
FC(F)(F)c1ccccc1CN1CCN(C2CCCCCC2)CC1 | x | 29 | x | x | x | -3 | -0.3 | 1.1 | u | 4
CCOc1cccc(-c2nn3c(-c4cc(C)[nH]n4)nnc3s2)c1 | -2 | 13 | x | x | x | -2 | 0.2 | -0.4 | 0 | -7
O=C1c2ccccc2S(=O)(=O)c2cc(C(=O)N3CCC(N4CCCC4)CC3)ccc21 | -7 | 45 | x | x | x | -3 | 0.4 | -3.6 | 24 | -10
Cc1ccc[n+](CC(=O)Nc2ccc(N(C)C)cc2)c1 | 100* | -7 | 16 | 14 | 0.0 | 2 | 0.6 | -0.4 | 55 | 4
Cc1[nH]nc2c1C1(CCOC1C)C(C#N)=C(N)O2 (stereo not drawn) | 1 | -9 | x | x | x | x | 1.4 | 0.7 | -3 | -5
COc1ccc(NC(=O)CSc2nc3ccc(OC)cc3[nH]2)cc1 | x | 0 | -15 | -7 | 10 | -8 | -0.3 | -6.4 | -17 | 3
Cc1c(NC(=O)c2ccc(COc3ccc4ccccc4c3)o2)c(=O)n(-c2ccccc2)n1C | -25 | 7 | -17 | 0 | 13 | -6 | -0.6 | -3.2 | 25 | 10
Cc1cc(C(=O)N/N=C/c2cccc([N+](=O)[O-])c2)c2ccccc2n1 | 3 | -10 | 22 | -2 | 2.2 | -2 | -1.1 | 3.1 | -20 | -2
Cc1cc(C)n(C(=O)CCCn2cc([N+](=O)[O-])cn2)n1 | -34 | -7 | 8 | 3 | -7.7 | -10 | 0.4 | 1.3 | 6 | 5
CC(=O)N1CCC(C(=O)NCCOc2ccc(C)cc2)CC1 | -5 | -6 | 0 | 5 | -0.1 | -3 | -0.6 | -6.4 | -5 | 1
Cc1cccc(NC(=O)NC(C)CCc2ccccc2)c1 (stereo not drawn) | -10 | 12 | x | x | x | -6 | 0.4 | 2.3 | -13 | -3
Cc1ccc(C(=O)N2CCc3ccccc32)cc1 | x | 4 | x | x | x | -5 | -2.4 | -3.7 | -3 | -9
O=[N+]([O-])/C(C(Cl)=C(Cl)Cl)=C(\Sc1ccccc1)N1CCCCC1 | 98* | -19 | 9 | 2 | -3.3 | 1 | -0.6 | -1.6 | 2 | 9
CC(Oc1ccc(Br)cc1)C(=O)NCc1ccccn1 (stereo not drawn) | -5 | -5 | 8 | 3 | 5.7 | -1 | -0.1 | -2.2 | -9 | -4
Cc1c(C=O)c2ccccc2n1CC(=O)NC(C)c1ccccc1 (stereo not drawn) | -7 | -20 | 6 | -2 | -4.0 | 0 | 0.6 | 2.3 | -5 | -4
COc1ccc(C(=O)N/N=C\c2ccc(OC)c(COc3ccccc3Br)c2)c(OC)c1 | -4 | 13 | 0 | 16 | -0.4 | 5 | 0.1 | -6.6 | -1 | 7

Of the compounds above, these contain a furan ring, fused or not.
SMILES | ALR inh | T cruzi inh | Ecoli rRNA inh | Ecoli rRNA inh OD600 | Ecoli rRNA inh RFP | Beta cell apopt | A1 inh | LANA-H2B inh | Calb FLC | B2AR ag
COc1ccccc1NC(=O)Cn1nnc(-c2ccccc2NC(=O)c2ccco2)n1 | x | -42 | x | x | x | 2 | 0.8 | -1.3 | 0 | 2
Cc1c(NC(=O)c2ccc(COc3ccc4ccccc4c3)o2)c(=O)n(-c2ccccc2)n1C | -25 | 7 | -17 | 0 | 13 | -6 | -0.6 | -3.2 | 25 | 10

Three entries from above, ordered by molecular weight, smallest number first.
SMILES | ALR inh | T cruzi inh | Ecoli rRNA inh | Ecoli rRNA inh OD600 | Ecoli rRNA inh RFP | Beta cell apopt | A1 inh | LANA-H2B inh | Calb FLC | B2AR ag
Cc1ccc[n+](CC(=O)Nc2ccc(N(C)C)cc2)c1 | 100* | -7 | 16 | 14 | 0.0 | 2 | 0.6 | -0.4 | 55 | 4
COc1ccc(N(C(=O)C(C)C)S(=O)(=O)c2cccc3cccnc23)cc1 | 0 | 10 | -3 | -5 | 7.2 | 3 | 0.6 | -2.5 | 11 | 7
CS(=O)(=O)N(CC(=O)N1CCc2ccccc2C1)c1ccc(Cl)cc1F | -3 | 6 | 1 | 8 | -1.5 | 0 | 0.1 | 0.4 | 3 | -2

The listing picks up; the three compounds before the break are reprinted first.
SMILES | ALR inh | T cruzi inh | Ecoli rRNA inh | Ecoli rRNA inh OD600 | Ecoli rRNA inh RFP | Beta cell apopt | A1 inh | LANA-H2B inh | Calb FLC | B2AR ag
CC(Oc1ccc(Br)cc1)C(=O)NCc1ccccn1 (stereo not drawn) | -5 | -5 | 8 | 3 | 5.7 | -1 | -0.1 | -2.2 | -9 | -4
Cc1c(C=O)c2ccccc2n1CC(=O)NC(C)c1ccccc1 (stereo not drawn) | -7 | -20 | 6 | -2 | -4.0 | 0 | 0.6 | 2.3 | -5 | -4
COc1ccc(C(=O)N/N=C\c2ccc(OC)c(COc3ccccc3Br)c2)c(OC)c1 | -4 | 13 | 0 | 16 | -0.4 | 5 | 0.1 | -6.6 | -1 | 7
Cc1ccccc1C(=O)N1CCC(n2nccc2NC(=O)CCOc2ccccc2)CC1 | -4 | 8 | 4 | 1 | 1.6 | -6 | 1.1 | 3.8 | 8 | 0
COc1cc(CNCc2ccco2)ccc1OCc1ccccc1 | -8 | -25 | x | x | x | 4 | -0.3 | -4.3 | 2 | -2
COc1cc(C2C3=C(CC(C)(C)CC3=O)N(C)C3=C2C(=O)CC(C)(C)C3)ccc1O | -23 | -20 | 14 | 16 | 0.5 | 1 | -0.4 | 6.6 | -1 | -2
Cc1ccccc1NC(=O)CSc1nnc(C)c2ccccc12 | 96* | 10 | 4 | -2 | 4.3 | -6 | -0.6 | 3.8 | -12 | -1
CC1=Nc2ccccc2N=C(NC(=O)CSC(=S)N2CCN(C)CC2)C1c1ccccc1 (stereo not drawn) | 20 | 13 | -3 | -8 | 3.3 | x | -0.3 | -3.0 | 3 | -4
CC(=O)N(c1ccccc1)c1ccc([N+](=O)[O-])cc1[N+](=O)[O-] | -54 | 33 | x | x | x | 27 | 0.0 | 1.6 | 32 | 11
CC(OC(=O)c1nsc(Cl)c1Cl)C(=O)NCc1ccc2c(c1)OCO2 (stereo not drawn) | -21 | 7 | 14 | 5 | 3.7 | -5 | -0.1 | 2.8 | -10 | 2
Cc1c(NC(=O)C(C)C)cccc1-c1nc2ncccc2o1 | -1 | -4 | 5 | 8 | -1.6 | x | 0.2 | -1.1 | 41 | -15
O=C(O)c1ccc(-n2cc(C(=O)c3ccccc3O)cn2)cc1 | -13 | -15 | -8 | -1 | -1.2 | 6 | -10 | -3.8 | -3 | 0
C=CCC[C@H](Cc1ccc(F)cc1)C(=O)OC[C@@H](Cc1c[nH]c2ccccc12)NC(=O)[C@H](CC=C)CC(=O)N(CCO)Cc1ccccc1 | 3 | x | 17 | 11 | 0.9 | -13 | -0.5 | -0.3 | x | 13
CC(C)N(C(=O)CSc1nc2ccccc2n1Cc1ccccc1F)C(C)C | x | 21 | x | x | x | 17 | 0.5 | 3.7 | 2 | -5
NS(=O)(=O)c1ccc(CCNC(=O)CC(NC(=O)c2ccccc2Cl)c2ccccc2)cc1 (stereo not drawn) | -6 | 3 | 2 | 3 | 2.2 | -7 | 0.0 | -4.3 | -2 | 2
COc1cccc(N2CCN(CC(=O)C34CC5CC(CC(C5)C3)C4)CC2)c1 | 22 | -8 | x | x | x | -6 | 0.1 | -0.6 | -5 | 1
CCN(C[C@H]1N[C@@](C)(C(=O)OC)[C@H]2C(=O)N(Cc3ccccc3)C(=O)[C@@H]12)C(=O)Nc1ccc(OC)cc1 | x | x | 12 | 14 | 2.8 | -10 | -0.8 | 3.6 | x | -2
O=C(CSc1nnnn1-c1cccnc1)Nc1ccccc1F | -17 | -16 | 7 | 5 | -0.2 | -5 | -0.5 | -0.8 | 0 | -5
O=C(COc1ccc(Br)cc1CNCCc1ccccc1)NCc1ccccc1 | -4 | 51 | -45 | -51 | -9.4 | 42 | -0.1 | -2.3 | -9 | 24
O=C(CS(=O)(=O)c1ccccc1)Nc1ccc(Br)cn1 | -17 | -9 | x | x | x | -5 | -0.4 | 2.6 | 17 | 0
COc1ccc2c(c1)[nH]c1c(=O)n(/N=C/c3ccc(OC)c(COc4ccccn4)c3)cnc12 | x | -25 | 13 | 20 | 6.3 | -18 | -0.1 | x | -16 | 21
CCOc1ccc(S(=O)(=O)NCc2ccc3c(c2)OCO3)cc1C | -9 | -6 | -6 | -14 | 0.8 | -7 | 0.7 | -2.0 | -7 | -1
O=C(/C=C/c1ccccc1)NNC(=O)c1cccs1 | x | 9 | 12 | 2 | 2.1 | 2 | -0.7 | -4.7 | -8 | 4
CCCSc1nsc(NC(=O)c2cccnc2OCC)n1 | -10 | 6 | -14 | -11 | 0.8 | 8 | -1.0 | -1.0 | 24 | 0
Cc1cccc(Nc2ccc([N+](=O)[O-])cc2C(=O)O)c1 | x | 16 | -6 | 6 | 4.1 | 9 | 0.4 | x | 17 | -1
O=C(CCc1c[nH]c2ccccc12)Nc1ccc(S(=O)(=O)Nc2ncccn2)cc1 | -10 | -2 | -1 | -2 | -3.0 | -3 | 0.6 | -8.3 | -19 | -3
CC1(C)Cc2ccccc2/C(=C/C(=O)c2ccccc2)N1 | 12 | 18 | -23 | -29 | -3.6 | 6 | -0.2 | -4.0 | -15 | -3
Clc1ccc(-n2ncc3c(NCc4ccccn4)ncnc32)cc1 | -4 | -3 | x | x | x | 0 | -1.0 | -1.4 | 4 | -5

Some of the compounds tested; the hit share may differ from the screen's.
